H5N1 antiviral: MDCK cell protection from H5N1 avian flu | AID 740, 2007 | 96,000 tested, 0.07% active | inhibition, % at 50 µM | cytopathic effect, luminescence, 72 h; stronger effect = higher value; no value below 0 was filed and about half of the inactive calls have no number; reference of the scale not given here; in the data active means inhibition above about 25%
* hit, by the source's call; i = inactive. These rows are one share of the data; rates above refer to the full screens.

smiles | H5N1 antiviral
COc1ccccc1C(CCN(Cc1cccs1)C(C)=O)c1ccco1 (stereo unspecified) | 1.0
COc1ccc(S(=O)(=O)NCCC(=O)NCc2ccccc2)cc1 | 0.5
Cc1[nH]nc(N=CC2=C(O)CC(C)(C)CC2=O)c1-c1ccc(Cl)cc1 | i
O=C(CSc1nnc(Cc2ccccc2)n1Cc1ccco1)NC12CC3CC(CC(C3)C1)C2 | i
CCOc1ccccc1C1C(C(=O)OC)=CN(C)C=C1C(=O)OC | 0.2
CCOc1ccc(-c2nnn(CC(=O)c3ccc4c(c3)OCCO4)n2)cc1OCC | 0.1
Cc1cc(=O)oc(C)c1C(=O)NCc1c(F)cc(F)cc1F | i
Cc1nn(C/C(C#N)=N\O)c(C)[n+]1N | i
O=C(N/C(=C\c1cccnc1)C(=O)N1CCOCC1)c1cccc(Br)c1 | i
Cc1ccc(-n2nnnc2SCC(=O)NNC(=O)c2ccco2)c(C)c1 | i
CC1(N2CCOCC2)CC2(O)C(=[N+]1[O-])CCc1nonc12 (stereo unspecified) | i
COC(=O)CSc1nnc(-c2ccccc2OC)o1 | i
Cc1ccc(C)c(-n2nnnc2Sc2nnnn2-c2ccccc2)c1 | 2.6
CC(C)Cc1ccc(C(C)C(=O)OCC(=O)c2c[nH]c3ccccc23)cc1 (stereo unspecified) | i
O=C(Nc1cc(Sc2ccccn2)cc([N+](=O)[O-])c1)c1ccc(Cl)cc1 | i
Cc1cc(S(=O)(=O)N2CCN(c3c(C)cccc3C)CC2)ccc1F | 0.4
COc1cc(C(=O)NCC2CCCO2)ccc1OCc1c(C)noc1C (stereo unspecified) | i
CN(C(=O)c1cccc(N2C(=O)C3CC=CCC3C2=O)c1)C1CCCCC1 (stereo unspecified) | 0.5
CN1CCc2nc(NC(=O)c3cccc(OC(F)F)c3)sc2C1 | i
CCOC(=O)c1cnc(-n2nc(C)cc2C)nc1NCc1ccccc1 | 4.2
O=C(Nc1ccc(Cl)cn1)c1cc2ccccc2o1 | i
COc1cccc(-c2nc(CS(=O)CC(=O)NCc3ccccc3)c(C)o2)c1 (stereo unspecified) | i
CC(C)OC(=O)/C(=C\C=C\c1ccccc1)NC(=O)c1ccccc1 | i
O=C(O)C1CCCN1S(=O)(=O)c1cc(Cl)ccc1Cl (stereo unspecified) | i
CN(C(=O)CCc1nc2ccccc2s1)c1ccccc1 | 0.8
c1ccc(NC2=Nc3ccccc3CC2)cc1 | i
N#CC1=C(N)Oc2cc3ccccc3cc2C1c1cccs1 (stereo unspecified) | i
O=C(NCCc1c[nH]c2ccccc12)C1CCC(Cn2c(=S)[nH]c3ccccc3c2=O)CC1 (stereo unspecified) | 1.3
O=C(NCc1ccco1)c1cccn2c(=O)c3c4c(sc3nc12)CCCC4 | 2.1
CCn1c(=N)n(CC(O)c2ccco2)c2ccccc21 (stereo unspecified) | 3.0
O=C(O)c1cc(Cl)c(Cl)cc1C(=O)N1CCCC1 | 0.8
O=C(Oc1ccc(-c2cnc3ccccc3n2)cc1)c1ccc(Br)o1 | 0.4
CCOC(=O)c1oc2ccccc2c1NC(=O)COc1cccc(OC)c1 | 0.8
Cc1ccnc(N2CCC(C(=O)Nc3ccc(Oc4ccccc4)cc3)CC2)n1 | i
CC(=O)Oc1cc2oc(=O)c3c(c2cc1Cl)CCC3 | 0.9
Cc1ccc(N(CC(=O)N/N=C/c2ccc(OC3CSC3)cc2)S(=O)(=O)c2ccccc2)cc1 | 1.1
O=C(OCC(=O)N1CCCC1)c1cccs1 | 0.9
O=C(CN1CCN(c2ccc(Cl)cc2)CC1)N1CCCC1 | i
Fc1ccc(CN2CCN3CCCC3C2C2CCCCC2)cc1F (stereo unspecified) | i
CCOC(=O)c1cnc(SC)nc1Oc1cccc(NS(=O)(=O)c2ccc(Cl)cc2)c1 | 0.5
C/C(=N\n1nnnc1Nc1ccccc1)c1ccc(N)cc1 | 1.3
C=CCn1c(NC(=O)c2ccc(Br)o2)c(C(=O)OCC)sc1=S | 0.3
CCc1ccccc1NC(=O)CN(C)Cc1nc(N)nc(Nc2ccccc2C)n1 | i
COc1ccc(OC)c(Nc2nc(-c3sc(C)nc3C)cs2)c1 | i
CC(C)OC(=O)c1nn2c(C(F)(F)F)cc(-c3ccc(Br)o3)nc2c1Br | i
CCS(=O)CCSC(=N)N (stereo unspecified) | i
Cc1cccc(OCC(=O)OCC(=O)c2c(N)n(C)c(=O)n(C)c2=O)c1 | 0.3
COc1cccc(N2CC(C(=O)OC(C)C(=O)c3ccccc3)CC2=O)c1 (stereo unspecified) | i
COc1cccc(/C=C/c2ccncc2)c1OC | 1.1
Cn1c(=O)cc(OCC(=O)N2CCC3(CC2)OCCO3)c2ccccc21 | 0.3

Other results follow:
smiles | H5N1 antiviral
O=C(c1ccccc1)c1cccn1CC(=O)N1CCN(c2ccccc2)CC1 | 1.6
C/C(N)=C(/C#N)C(=O)CSc1nc(C2CCCCC2)n(-c2ccccc2)n1 | i
CCCCCSc1nc2c(c(=O)[nH]c(=O)n2C)n1C(C)C | 0.3
Cc1ccc(CNC(=O)C2CC(=O)OC23CCCC3)c(C)c1 (stereo unspecified) | i
Cn1c(COc2nnc(-c3ccc(Cl)cc3)c3ccccc23)nc2ccccc21 | i
Cc1ccnc(NC(=O)Nc2cccc(F)c2)c1 | 2.7
CCC(C)(C(=O)NC1CCCC1)N(C(C)=O)c1ccc(C)cc1 (stereo unspecified) | i
Nc1c(C(=O)NCc2ccco2)nnn1Cc1ccccc1 | 0.6
CCOC(=O)C1=C(CS(=O)(=O)c2ccccc2)NC(=O)NC1c1ccccc1OCC (stereo unspecified) | 1.3
CCOC(=O)N1CCC2(CC1)C(C#N)=C(N)OC1=C2C(=O)CC(C)(C)C1 | i
Brc1ccc(CSc2nccn2-c2ccccc2)cc1 | 0.6
COc1ccc(NC(=O)CSc2nnc(CNC(=O)c3ccco3)n2-c2ccccc2OC)cc1 | 1.1
CCc1ccc(NC(=O)N(CCOC)C2CCN(C(C)=O)CC2)cc1 | 0.7
CCOC(=O)C1=C(c2ccccc2)N=c2s/c(=C\c3ccc(O)cc3)c(=O)n2C1c1cccs1 (stereo unspecified) | 1.6
O=C(CN1CCCC(O)C1)N1c2ccccc2Sc2ccc(C(F)(F)F)cc21 (stereo unspecified) | i
Cc1ccccc1N1CCN(Cc2c[nH]c3ccccc23)CC1 | i
Cc1ccc(-c2nc(C3CCCN(S(=O)(=O)c4ccc(C)cc4)C3)no2)cc1 (stereo unspecified) | 1.7
CCN(CC)CCN1C(=O)c2ccccc2NC1c1cccc(F)c1 (stereo unspecified) | i
O=C(Nc1ccccc1F)c1cc(S(=O)(=O)N2CCCCC2)cs1 | 0.6
c1ccc(COc2ccc(CNn3cnnc3)cc2)cc1 | i
O=C(c1cnccn1)N1CCN(S(=O)(=O)c2ccc3ccccc3c2)CC1 | 1.5
CCOC(=O)c1c(N)n(Cc2ccc(OC)cc2)c2nc3ccccc3nc12 | i
CC(=O)c1c(C)[nH]c(C(=O)NCCc2cccc(C)c2)c1C | i
COc1ccc(N/C(N)=N/c2nc(CSc3ccc(Cl)cc3)cc(=O)[nH]2)cc1 | i
O=C(CC(Sc1ccccc1)c1cccs1)c1ccco1 (stereo unspecified) | i
O=C(NC12CC3CC(CC(C3)C1)C2)N1CCCC(CO)C1 (stereo unspecified) | 1.1
COc1ccc(C2C=C(c3ccc(Br)cc3)Nc3nc(NS(C)(=O)=O)nn32)cc1 (stereo unspecified) | 0.4
N#Cc1c(-c2ccco2)cc(-c2cccnc2)nc1N | 10.3
CS(=O)(=O)N1CCN(C(=O)c2ccc(F)cc2)CC1 | 0.6
COc1cc(C2C(C(=O)c3cccs3)=C(O)C(=O)N2c2cc(C)on2)ccc1O (stereo unspecified) | 1.3
Cc1cccc(OCCNC(=O)c2cc(-n3cnnc3)ccc2Cl)c1 | 0.7
Cc1ccccc1-n1c(SC(C)C(N)=O)nnc1-c1cccnc1 (stereo unspecified) | 1.1
CSc1ccc(S(=O)(=O)Nc2ccc(F)cc2)cc1 | i
Cc1nc(N)sc1N=Nc1ccc(F)cc1 | i
Cc1cccc(OCc2nnc(SCC(=O)Nc3ccc(C)c(Cl)c3)o2)c1 | i
O=S(=O)(NCCOc1ccccc1)c1ccc2ccccc2c1 | i
Cc1ccc(NC(=O)c2cc(NC(=O)c3ccco3)ccc2N2CCOCC2)cc1 | 0.5
CC(=O)c1ccc(-n2nnnc2SCC(=O)Nc2cccc(NC(=O)c3ccco3)c2)cc1 | i
CCOC(=O)N1CCN(C(=O)CSc2ncnc3ccccc23)CC1 | i
Cn1ccnc1SCC(=O)Nc1cccc(C(F)(F)F)c1 | 1.5
COc1cccc(C(=O)N2CCN(C(=O)c3cccc4ccccc34)CC2)c1OC | 0.6
Cc1nc2ccc(NC(=O)N3CCN(c4ccccn4)CC3)cc2s1 | i
O=C(c1cccn2c(=O)c3cc(Br)ccc3nc12)N1CCN(c2ccccn2)CC1 | 1.4
Cc1cc(C)n(C(=O)CSc2nc3ccccc3o2)n1 | 0.1
COC(=O)c1[nH]c2ccc(Br)cc2c1NC(=O)C(C)N1CCN(C2CCCCC2)CC1 (stereo unspecified) | i
CCN1C(=O)CC(N2CCN(c3ccc(OC)cc3)CC2)C1=O (stereo unspecified) | i
COc1ccccc1-n1cnnc1SCC(=O)N1CCN(S(=O)(=O)c2ccccc2)CC1 | 1.1
O=S(=O)(NCc1ccc2c(c1)OCO2)c1ccc2c(c1)oc1ccccc12 | 1.4
CCCOc1ccc(-c2nc(C#N)c(NCC3CCCO3)o2)cc1 (stereo unspecified) | 1.6
CCN(CC)C(=O)CSc1nnc([C@H](Cc2c[nH]c3ccccc23)NC(=O)OC(C)(C)C)o1 | i

2 of the compounds above, with each value named:
CCCOc1ccc(-c2nc(C#N)c(NCC3CCCO3)o2)cc1 (stereo unspecified)
- H5N1 antiviral = 1.6

Cn1ccnc1SCC(=O)Nc1cccc(C(F)(F)F)c1
- H5N1 antiviral = 1.5

Next part.
smiles | H5N1 antiviral
CCCN1C(=O)c2ccc(C(=O)NC3=NCCS3)cc2C1=O | i
CC(c1ccccc1)n1cc(C(=O)NCC2CCCO2)nn1 (stereo unspecified) | i
N#CC1=C(N)Oc2ccc3ccc(O)cc3c2C1c1cccnc1 (stereo unspecified) | 0.1
O=c1ccnc(SCc2ccccc2Cl)[nH]1 | 0.2
Nc1ccc(C(O)(C(F)(F)F)C(F)(F)F)cc1 | 0.6
Cc1sc(NC(=O)c2ccco2)c(CN2CCN(c3ccc(F)cc3)CC2)c1C | i
O=C1CCCN1c1ccc(CNS(=O)(=O)c2ccc(F)cc2)cc1 | 2.1
O=C(Cn1cc(C(=O)C2CC2)c2ccccc21)NCc1ccc2c(c1)OCO2 | 0.6
COc1ccc(OC)c(S(=O)(=O)N2CCC(C(=O)NC(C)c3ccccc3)CC2)c1 (stereo unspecified) | 0.8
O=S(=O)(Nc1nc2ccccc2[nH]1)c1ccc(Cl)cc1 | i
CN1C(=O)CC(N2CCN(C(=O)CN3CCCC3)CC2)C1=O (stereo unspecified) | i
COc1ccc(-c2nc(CSCC(=O)NCc3ccco3)c(C)o2)cc1 | 3.0
CCCOc1ccc(N2CC(C(=O)Nc3ccc4c(c3)OCO4)CC2=O)cc1 (stereo unspecified) | i
Cc1nc(P(=O)(c2ccccc2)c2ccccc2)c(N2CCOCC2)o1 | 0.7
COc1cccc(-n2c(SC)nnc2-c2c[nH]c3ccccc23)c1 | 1.1
Cc1ccc(-c2nc3ncccn3c2Nc2ccc3c(c2)OCCO3)cc1 | 0.3
Cn1c(SCCCC(=O)c2ccc(Br)cc2)nnc1-c1ccncc1 | 3.4
O=C(COc1ncnc2ccccc12)NCCC1=CCCCC1 | i
COc1ccc(C2=NO[C@@H]3C(=O)N(c4ccc5c(c4)OCCO5)C(=O)[C@H]23)cc1OC | 0.3
CCN(CC)c1ccc(NC(=O)c2cc3ccccc3o2)c(C)c1 | i
CCc1nc(NCCc2ccccn2)c2nnn(Cc3ccccc3F)c2n1 | 0.0
COc1cc([N+](=O)[O-])ccc1NC(=O)CCCOc1ccc(C)cc1 | 0.3
CCOC(=O)c1c(NC(=O)c2cccs2)sc(C)c1CC | i
CCN1CCN(C(=O)C2CCN(S(=O)(=O)c3cccc4cccnc34)CC2)CC1 | 0.9
Cc1ccc(C(=O)CSc2nnc(COc3cc(C)cc(C)c3)o2)cc1 | i
COc1cc(NC(=O)c2cc(-c3cccs3)on2)cc(OC)c1OC | i
CCOc1cc(C=O)ccc1OCCSc1ccc(C)cc1 | 0.5

Gathered by group: the entries above with a nitro group on carbon
smiles | H5N1 antiviral
O=C(Nc1cc(Sc2ccccn2)cc([N+](=O)[O-])c1)c1ccc(Cl)cc1 | i
COc1cc([N+](=O)[O-])ccc1NC(=O)CCCOc1ccc(C)cc1 | 0.3

Molecules shown so far containing a cyano group (7):
smiles | H5N1 antiviral
Cc1nn(C/C(C#N)=N\O)c(C)[n+]1N | i
N#CC1=C(N)Oc2cc3ccccc3cc2C1c1cccs1 (stereo unspecified) | i
C/C(N)=C(/C#N)C(=O)CSc1nc(C2CCCCC2)n(-c2ccccc2)n1 | i
CCOC(=O)N1CCC2(CC1)C(C#N)=C(N)OC1=C2C(=O)CC(C)(C)C1 | i
N#Cc1c(-c2ccco2)cc(-c2cccnc2)nc1N | 10.3
CCCOc1ccc(-c2nc(C#N)c(NCC3CCCO3)o2)cc1 (stereo unspecified) | 1.6
N#CC1=C(N)Oc2ccc3ccc(O)cc3c2C1c1cccnc1 (stereo unspecified) | 0.1

High-throughput results (PubChem BioAssay)
